miR-21 FLuc: miR-21 reporter, rising signal | Potency, µM (highest dose often 38.3 µM), for the others: top-dose reporter change, positive = more light | AID 2288 | HeLa miR-21 FLuc reporter, luciferase, 48 h | 340,000 tested, under 10 active; active = well fitted rising curve with a large enough effect; inconclusive = small, poorly fitted or top-dose-only effect; inactive = no such curve, though single readings can be large or run the other way;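 further: % of control where 0% means no effect; miR-21 action dims this reporter so a rising signal means less miR-21 action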
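Using DMEM plus 10% FBS, HeLa miR-21-FLuc cells are incubated with test compounds (final up to about 40uM) for 48 hours; firefly luciferase signal is then imaged following reagent-mediated lysis.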
GLA inh pH 4.5: alpha-galactosidase A (human) inhibition, pH 4.5; AID 1467; 230,000 tested, under 10 active; purified enzyme, 4-MU-alpha-Gal fluorescence, pH 4.5; activity change, negative = inhibition, % at 105 µM; P06280; inconclusive = small, poorly fitted or top-dose-only inhibition, or a rising curve; inactive = flat fitted curve, though single readings scatter; no compound was filed as active;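 further: 0% = full activity with enzyme and -100% = basal without enzyme; dose as in the result columns while the protocol names 77 µM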
Target sequence (P06280 whole entry, looked up): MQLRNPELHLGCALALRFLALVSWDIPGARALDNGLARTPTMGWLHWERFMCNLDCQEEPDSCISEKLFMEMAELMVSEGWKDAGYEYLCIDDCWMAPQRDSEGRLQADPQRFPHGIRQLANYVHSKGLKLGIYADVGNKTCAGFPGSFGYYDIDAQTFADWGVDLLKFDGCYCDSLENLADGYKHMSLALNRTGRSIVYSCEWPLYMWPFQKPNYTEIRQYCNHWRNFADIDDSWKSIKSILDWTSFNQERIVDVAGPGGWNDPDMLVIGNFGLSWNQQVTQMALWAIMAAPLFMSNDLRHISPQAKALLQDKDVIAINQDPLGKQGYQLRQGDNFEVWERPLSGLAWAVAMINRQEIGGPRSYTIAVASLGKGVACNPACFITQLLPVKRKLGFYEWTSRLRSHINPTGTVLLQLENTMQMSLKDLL
Rango dissoc inh: prevents RanGTP from dissociating the Rango-importin beta complex. 0.071% of 340,000 active. Biochemical FRET Rango-importin beta, RanGTP-induced dissociation. O95149+P62826. Potency, µM (top dose mostly 46.1 µM), for inactives: at the highest dose activity change, negative = inhibition; active means falling FRET ratio curve, often poorly fitted, with flat reads before Ran was added; inconclusive means other falling curves, or compound fluorescence or quenching; inactive means flat or rising ratio curve;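 further: potency means the concentration at half of the fitted maximal effect; % of control where 0% means no effect; nearly all actives have a fitted effect of over 45% in size; -100% = wells without RanGTP and RCC1; the record marks most hits as doubtful in a second field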
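Compounds preincubate 5 min with complex of recombinant Rango and importin beta in PBS with 1 mM DTT. Ran (0.6 uM) loaded with 2 mM GTP plus 0.2 uM RCC1 starts dissociation; FRET is recorded 45 min later.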
Rango complex inh: inhibitors of Rango-importin beta complex formation; Q14974; Rango CFP/YFP FRET sensor + importin beta, 45 min; Potency, µM (series often up to 92.2 µM), for the others: at the highest dose inhibition of complex formation; 0.031% of 340,000 active; AID 540263; active = rising FRET ratio curve, often small or poorly fitted; inconclusive = mostly compound fluorescence or quenching in the first reads; inactive = flat curves in all reads;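 further: potency means the concentration at half of the fitted maximal effect; 0% = DMSO wells and 100% = buffer wells lacking importin beta; nearly all actives have a fitted effect of over 15% in size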
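FRET biosensor (snurportin 1 IBB flanked by EYFP and cerulean), 50 nM, with compound 5 min, then 0.125 microM importin beta in PBS, 1 mM DTT, 0.02% Tween-20, 0.1% BSA. CFP/YFP ratio read after 45 min at room temperature; pre-read flags interference.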
Active calls of the source: *; ? = inconclusive; . = no result given; & = joins results of further samples. A portion of the library, so the mix of outcomes need not match the whole.

SMILES	miR-21 FLuc	GLA inh pH 4.5	Rango dissoc inh	Rango complex inh
CC(C)c1ccc(NC(=O)C(c2ccccc2)N(C)C(=O)CCc2c[nH]c3ccccc23)cc1 (stereo not given)	.	.	-7.4%	-4.1%
CCCCC(=O)Nc1ccc2oc(-c3ccncc3)nc2c1	-31.8%	-7.5	-18.2%	-4.9%
CCc1ccc(C2NC(=S)NC3=C2C(=O)CC(C)(C)C3)cc1 (stereo not given)	-6.0%	-8.5	-17.9%	?
CC(=O)Nc1ccc(OCC(=O)N2CCc3ccccc3C2)cc1	0.1%	.	7.6%	-0.4%
COc1cc(/C=N/NC(=O)CCc2n[nH]c(=O)[nH]c2=O)ccc1O	-1.0%	-4.0	0.9%	6.2%
COc1ccc2c(c1)[nH]c1c(=O)n(CCN(C)C)cnc12	-0.8%	-2.9	1.0%	-2.5%
CCOC(=O)[C@@H]1CSCCS(=O)(=O)N1	.	.	30.8%	4.0%
CC(C)(C)n1cnnc1Sc1ncccc1[N+](=O)[O-]	0.4%	-0.7	7.7%	-0.4%
COc1ccc(C2=C(Nc3ccc(F)cc3)c3ccccc3C2=O)cc1	-10.1%	.	0.4%	-0.2%
CC(C)[C@@H](NC(=O)C1CCC(CNC(=O)[C@H](Cc2ccccc2)NC(=O)OC(C)(C)C)CC1)C(=O)O (stereo not given in full)	-7.0%	.	-1.7%	0.1%
COCCn1c(-c2ccc(-c3ccccc3Cl)o2)nc2c1c(=O)[nH]c(=O)n2CC(C)C	-4.2%	2.3	6.51µM*	?
O=C(Nc1ccc(Br)cc1)C1CCN(C(=O)c2ccc(F)cc2)CC1	1.6%	14.9	-9.8%	0.1%
CS(=O)(=O)N(CC(=O)NCc1ccc2c(c1)OCO2)C1CCCCC1	-4.9%	5.8	7.1%	1.5%
Cc1cc(C)nc(SCc2ccc(C(=O)NN=C3CCCC3)cc2)n1	0.6%	3.9	0.0%	-3.5%
O=S(=O)(NC1CC1)c1ccc(S(=O)(=O)N2CCCC3(CCCCC3)C2)cc1	-5.8%	3.8	17.3%	-1.0%

Continued, starting with the last 2 of the part before.
SMILES	miR-21 FLuc	GLA inh pH 4.5	Rango dissoc inh	Rango complex inh
Cc1cc(C)nc(SCc2ccc(C(=O)NN=C3CCCC3)cc2)n1	0.6%	3.9	0.0%	-3.5%
O=S(=O)(NC1CC1)c1ccc(S(=O)(=O)N2CCCC3(CCCCC3)C2)cc1	-5.8%	3.8	17.3%	-1.0%
COc1ccc(CC(NC(=O)c2ccccc2)C(=O)NCC(=O)O)cc1 (stereo not given)	-6.6%	-6.4	-9.5%	4.4%
Cc1ccc(NC(=O)Nc2nc3ccccc3s2)cc1NC(=O)Nc1nc2ccccc2s1	-23.4%	3.3	?	-1.4%
CC(=O)Nc1ccc(C(=O)Nc2ccc(S(=O)(=O)N3CCCC3)cc2)cc1	0.9%	3.4	-16.5%	1.0%
Cc1ccc([N+](=O)[O-])cc1N(CC(=O)N1CCCCC1)S(C)(=O)=O	-4.0%	2.3	-4.3%	1.4%
CCOc1ccc(OCCC(=O)OCC(=O)Nc2ccc3c(c2)OCO3)cc1	.	.	3.7%	-2.8%
CCOc1ccccc1/C=C/c1onc(C)c1S(=O)(=O)N1CCC(C(=O)N(CC)CC)CC1	22.2%&5.4%	.	10.3%	-0.4%
Cc1ccc(NC(=O)Cn2nc(C)c([N+](=O)[O-])c2C)cc1Cl	0.2%	-1.9	0.8%	0.4%
O=[N+]([O-])c1cnccc1Nc1ccc(F)cc1	2.6%	-4.4	-1.0%	-1.5%
CCOc1ccccc1-n1c(=S)sc2c(=O)n(-c3ccc(C)cc3)c(=S)[nH]c21	-2.3%	-5.6	-8.3%	3.9%
O=C(Nc1ccccc1-c1ccccc1)c1ccc(NC(=O)c2ccco2)cc1	8.2%	-6.9	-9.8%	0.0%
CCOC(=O)C1C(=O)NC(N2CCN(Cc3ccccc3)CC2)=NC1c1ccccc1 (stereo not given)	-0.2%	-9.8	-18.5%	3.1%
CC(C(=O)N1CCN(c2ccc([N+](=O)[O-])cc2)CC1)N1C(=O)C2CC=CCC2C1=O (stereo not given)	2.3%	-2.1	22.7%	0.1%
CCc1nnc(NC(=O)CSc2nnc(CNc3ccc(OC)cc3)n2CC)s1	0.8%	6.4	2.0%	4.2%
C=CCn1c(SCC(=O)c2cc(C)n(CCOC)c2C)nc2sc(C)c(C)c2c1=O	-9.2%	5.8	13.3%	1.6%
Cc1ccccc1CNC(=O)C1CCC(=O)N(Cc2cccc(F)c2)C1 (stereo not given)	0.1%	.	-4.1%	2.1%
Cn1c(CNC(=O)CCNC(=O)c2cccc(Br)c2)cc(=O)n(C)c1=O	0.8%	.	10.3%	2.1%
CC1CCC2(CC1)NC(=O)N(CC(=O)N1CCc3ccccc3C1)C2=O (stereo not given)	-1.1%	2.4	-3.6%	-0.1%
C/C(=C/c1ccccc1)C(=O)N1CCC(C)CC1	-30.7%	.	-0.3%	1.4%
O=C(CC(Nc1cccc(Cl)c1Cl)C(=O)O)c1ccccc1 (stereo not given)	-40.9%	4.7	-13.5%	0.0%
O=C(/C=C/c1ccccc1Cl)Nn1cnc2ccccc2c1=O	-29.7%	-1.7	-20.9%	3.3%
O=C(Nc1ncc2c(n1)-c1ccccc1CC2)c1ccc(Cl)cc1	2.6%	3.9	6.2%	-2.1%
CCCCCCCCSc1nnc2[nH]c(=O)cc(N)n12	-9.6%	-0.8	14.7%	-3.7%
CCSc1ccc2c(c1)N(CCCN1CCN(C)CC1)c1ccccc1S2	.	-8.8	10.7%	-0.3%
COC(=O)C(C)n1cnc2c(nnn2-c2ccccc2)c1=O (stereo not given)	-4.7%	.	0.2%	-2.6%
COc1cc(-c2nnc(NC(=O)c3ccc(S(=O)(=O)N4CCOCC4)cc3)o2)cc(OC)c1OC	3.6%	3.6	.	.
CN(c1ccccc1)S(=O)(=O)c1ccc(NC(=O)c2ccc(F)cc2)cc1	.	.	0.1%	0.6%
COc1ccc(NC(=O)Nc2ccc3c(c2)CCC3)c(OC)c1	-16.1%	-1.6	-0.4%	0.0%
CCn1c(SCC(=O)OCC(=O)N2c3ccccc3NC(=O)C2(C)C)nnc1-c1ccco1	0.4%	-0.1	3.5%	-1.2%
CCOc1ccc(NC(=O)Cn2nc(C(N)=O)c3ccccc3c2=O)cc1S(=O)(=O)N1CCCC1	.	.	1.7%	-0.8%
COc1ccc(-c2oc3ccccc3c2C(=O)OCc2ccccc2OC)cc1	-7.7%	.	-6.7%	0.5%
CNc1nc(N/N=C/c2cc3c(cc2[N+](=O)[O-])OCO3)nc(Nc2ccccc2)n1	?	3.3	7.2%	65.1µM*
OCCN=C1CCCc2c1[nH]c1ccc(Cl)cc21	3.6%	-4.9	21.0%	?
COC(=O)c1ccccc1-c1ccc(C(c2c(C)[nH][nH]c2=O)c2c(C)[nH][nH]c2=O)o1	4.9%	-2.5	-2.3%	1.4%
Cc1ccc(NC(=O)N2CCCCC2)cc1[N+](=O)[O-]	-21.7%	-4.2	-0.3%	-3.4%
CSCCC(NC(=O)COc1ccccc1)C(=O)NCCOc1ccccc1 (stereo not given)	.	.	10.2%	-1.0%
CC(C)N(CCNC(=O)c1ccc(NC2=NC3CS(=O)(=O)CC3S2)cc1)Cc1ccco1 (stereo not given)	-4.3%	.	14.0%	-0.6%
Cc1cc(O)c(-c2n[nH]c3c2C(c2cccc(O)c2)N(Cc2cccnc2)C3=O)cc1Cl (stereo not given)	-25.0%	-6.0	7.7%	-0.9%
O=C1CCCCC1S(=O)(=O)c1ccccc1 (stereo not given)	-13.8%	-5.5	13.3%	-1.0%
O=c1c2ccccc2n(Cc2ccc(F)cc2)c(=O)n1C1CCCC1	-1.0%	2.6	1.0%	5.4%
Cc1ccccc1NC(=O)c1ccno1	-0.8%	.	-9.3%	-0.2%
O=C(CCc1ccccc1)Nc1ccc(N2CCOCC2)cc1	-25.7%	8.2	13.6%	-2.5%
CC(C)CCN1CCN(Cc2ccc(N3CCNC3=O)cc2)CC1CCO (stereo not given)	-7.7%	4.0	1.4%	-1.1%
O=c1cc(-c2ccc(Cl)cc2)oc(=O)[nH]1	1.9%	4.5	2.0%	-2.6%
CCCc1nc2sc3c(c2c(=O)n1NC(=O)CCC(=O)O)CCCC3	-0.9%	0.8	-11.1%	-1.3%
CC(C)(C)NS(=O)(=O)c1ccc(CCC(=O)N2CCOCC2)cc1	-8.6%	1.3	6.6%	?
CCOC(=O)CSC1=C(C#N)C(C)C2=C(CCCC2=O)N1 (stereo not given)	-21.2%	4.3	-12.0%	-2.0%
Cc1ccccc1-c1nc(S(=O)(=O)c2ccccc2)c(N2CCCC2)o1	.	.	2.7%	4.8%
COc1ccc2c(c1OC)C(=O)N(c1cccc(/C=C/C(=O)O)c1)C2	8.9%	.	-20.6%	3.2%
CCc1nnc(NC(=O)c2ccc3c(=O)n4c(nc3c2)CCCCC4)s1	-9.1%	-1.8	-14.4%	-0.9%
C/C(=N\NC(=O)c1cc(C(C)C)[nH]n1)c1ccco1	-27.2%	9.9	-6.3%	2.2%
O=C(COC(=O)CC1c2ccccc2CCN1S(=O)(=O)c1ccc(F)cc1)Nc1ccccc1 (stereo not given)	-5.8%	-8.3	?	2.9%
COc1cc(C#N)ccc1OCC(=O)N1CCc2ccccc2C1	-15.6%	.	11.2%	-0.4%
CCCCC(=O)NCCc1ccc(OC)cc1	0.3%	4.3	-2.4%	-2.5%
CCOC(=O)c1c(C)[nH]c(C(=O)COC(=O)CN2C(=O)C3CCCCC3C2=O)c1C (stereo not given)	-17.2%	4.2	-12.8%	8.2%
O/N=C/c1cn(-c2ccccc2)nc1-c1ccc2c(c1)OCCO2	-45.3%	-7.0	0.5%	0.1%
COc1ccc(-c2nn(-c3ccccc3)cc2/C=N/n2cnnc2)cc1OC	-26.2%	-3.9	3.5%	?
CCOc1ccc(-c2csc(N)c2C(=O)OC)cc1	-4.7%	-7.0	-5.9%	0.9%
COc1ccc(CNC(=O)C2CCN(S(=O)(=O)c3ccc4c(c3)CC(C)N4C(=O)C3CC3)CC2)cc1 (stereo not given)	8.1%	.	10.5%	-0.4%
COc1cc(SC)ccc1C(=O)Nc1cccc(C)n1	-3.4%	3.0	14.4%	1.1%
CCCN(Cc1nnc(-c2ccccc2Cl)o1)C(=O)COc1ccc(Cl)cc1	.	.	-3.0%	-0.4%

(further entries)
SMILES	miR-21 FLuc	GLA inh pH 4.5	Rango dissoc inh	Rango complex inh
Cc1nn(C)c(C)c1S(=O)(=O)N1CCC(C(=O)NCCC2=CCCCC2)CC1	-2.9%	-2.4	-16.9%	0.7%
COc1ccc(N2C(=O)CS/C2=N\C(=S)Nc2ccccc2)cc1	-10.4%	0.4	9.6%	-1.5%
Cc1cc(C(=O)NNC(=S)NC(=O)/C=C/c2ccccc2Cl)n[nH]1	-30.2%	-2.5	10.1%	6.6%
N#Cc1ccccc1NC(=O)CSc1nnc(-c2ccc(F)cc2)n1-c1ccccc1	4.5%	-3.5	-9.4%	-4.5%
Cc1c(S(=O)(=O)N2CCc3ccccc3C2)c(=O)n(C)c(=O)n1C	-0.5%	6.6	-0.5%	-2.1%
COc1cc(OC)cc(C(=O)NC(=S)Nc2nnn(C)n2)c1	-2.4%	5.5	-8.0%	-0.4%
CCOC(=O)CS(=O)(=O)c1ccc(C(F)(F)F)cn1	-1.7%	-4.0	-5.5%	-0.1%
CC(C)(C)Nc1c([N+](=O)[O-])c(=O)sc2ccccc12	-0.2%	0.3	-11.6%	-2.4%

Entries of single compounds, looked up by structure.
Shown for Cc1cc(C(=O)NNC(=S)NC(=O)/C=C/c2ccccc2Cl)n[nH]1 = miR-21 FLuc: -30.2%; GLA inh pH 4.5: -2.5; Rango dissoc inh: 10.1%; Rango complex inh: 6.6%
Shown for Cc1c(S(=O)(=O)N2CCc3ccccc3C2)c(=O)n(C)c(=O)n1C = miR-21 FLuc: -0.5%; GLA inh pH 4.5: 6.6; Rango dissoc inh: -0.5%; Rango complex inh: -2.1%

Taken from above:
For miR-21 FLuc, CCOC(=O)CS(=O)(=O)c1ccc(C(F)(F)F)cn1 has -1.7%
For Rango complex inh, COc1ccc(N2C(=O)CS/C2=N\C(=S)Nc2ccccc2)cc1 has -1.5%
For Rango complex inh, Cc1nn(C)c(C)c1S(=O)(=O)N1CCC(C(=O)NCCC2=CCCCC2)CC1 has 0.7%
For GLA inh pH 4.5, COc1cc(OC)cc(C(=O)NC(=S)Nc2nnn(C)n2)c1 has 5.5

Screens as filed in PubChem BioAssay.
